# High-throughput results (PubChem)
# STK33 inh: STK33 kinase inhibitors, primary screen, biochemical, luminescence, ADP-Glo, MBP substrate | inhibition, % at 12.5 µM | 27,000 compounds, 0.44% hits | AID 2322, 2010; in the data active = inhibition above about 20%
# Target sequence (Q9BYT3 whole entry, looked up): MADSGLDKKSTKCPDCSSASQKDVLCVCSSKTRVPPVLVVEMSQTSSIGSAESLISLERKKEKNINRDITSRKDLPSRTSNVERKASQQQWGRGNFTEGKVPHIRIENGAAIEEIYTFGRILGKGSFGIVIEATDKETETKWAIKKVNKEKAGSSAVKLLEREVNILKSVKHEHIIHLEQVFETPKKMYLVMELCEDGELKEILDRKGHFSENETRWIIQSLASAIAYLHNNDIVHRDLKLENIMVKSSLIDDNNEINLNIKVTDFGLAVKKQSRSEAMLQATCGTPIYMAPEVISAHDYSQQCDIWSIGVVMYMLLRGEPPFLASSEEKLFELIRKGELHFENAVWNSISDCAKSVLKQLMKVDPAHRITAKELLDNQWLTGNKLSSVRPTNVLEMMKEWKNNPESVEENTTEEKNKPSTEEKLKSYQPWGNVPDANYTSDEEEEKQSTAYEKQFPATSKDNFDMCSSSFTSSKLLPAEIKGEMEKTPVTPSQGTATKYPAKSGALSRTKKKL
# An asterisk follows results filed as active; & = joins results of further samples.
# The first 4 entries as a preview:
C[C@]12CCC3c4ccc(O)cc4CCC3C1C[C@@H](O)[C@@H]2O (stereo not given in full)
- STK33 inh: -9.8

CC(C)NCC(O)COc1ccc(CC(N)=O)cc1 (stereo not given)
- STK33 inh: 0.2

c1ccc2[nH]c(-c3cscn3)nc2c1
- STK33 inh: 2.2

C#C[C@]1(O)CC[C@H]2[C@@H]3CCC4=C(CCC(=O)C4)[C@H]3CC[C@@]21C
- STK33 inh: -5.5

# The listing, previewed entries included:
C[C@]12CCC3c4ccc(O)cc4CCC3C1C[C@@H](O)[C@@H]2O (stereo not given in full)
- STK33 inh: -9.8

CC(C)NCC(O)COc1ccc(CC(N)=O)cc1 (stereo not given)
- STK33 inh: 0.2

c1ccc2[nH]c(-c3cscn3)nc2c1
- STK33 inh: 2.2

C#C[C@]1(O)CC[C@H]2[C@@H]3CCC4=C(CCC(=O)C4)[C@H]3CC[C@@]21C
- STK33 inh: -5.5

CC(=O)CC(c1ccccc1)c1c(O)c2ccccc2oc1=O (stereo not given)
- STK33 inh: -6.7

CCN(CC)CC#CCOC(=O)C(O)(c1ccccc1)C1CCCCC1 (stereo not given)
- STK33 inh: 0.3

CC(C)NC[C@H](O)COc1ccc(CC(N)=O)cc1
- STK33 inh: -0.1

COc1ccc2cc(C(C)C(=O)O)ccc2c1 (stereo not given)
- STK33 inh: 0.2

C[C@@H]1CCCCO[C@H](CN(C)S(=O)(=O)c2ccc(F)cc2)[C@@H](C)CN([C@H](C)CO)C(=O)c2cc(NC(=O)Nc3ccccc3)ccc2O1
- STK33 inh: 7.0

CC(=O)[C@H]1CC[C@H]2[C@@H]3CCC4=CC(=O)CC[C@]4(C)[C@H]3CC[C@]12C
- STK33 inh: -5.8

O=C1OCCN1/N=C/c1ccc([N+](=O)[O-])o1
- STK33 inh: -8.8&0.7

C#C[C@]1(O)CCC2C3CCC4=CC(=O)CC[C@@H]4C3CC[C@@]21C (stereo not given in full)
- STK33 inh: -3.0

CCC1(c2ccccc2)C(=O)NCNC1=O
- STK33 inh: 4.0

O=C(NCC1CCCCN1)c1cc(OCC(F)(F)F)ccc1OCC(F)(F)F (stereo not given)
- STK33 inh: 2.5&0.4

CCCNCC(O)COc1ccccc1C(=O)CCc1ccccc1 (stereo not given)
- STK33 inh: 0.5&-10.8

Cc1cnc(C(=O)NCCc2ccc(S(=O)(=O)NC(=O)NC3CCCCC3)cc2)cn1
- STK33 inh: 1.3

COc1cc2nc(N(C)CCCNC(=O)C3CCCO3)nc(N)c2cc1OC (stereo not given)
- STK33 inh: 3.8&-1.3

CN1CCC[C@H]1c1cccnc1
- STK33 inh: 3.1

C=CCOc1ccccc1OCC(O)CNC(C)C (stereo not given)
- STK33 inh: -0.6

COc1cc(CCC(=O)N2CCC=CC2=O)cc(OC)c1OC
- STK33 inh: -4.0

# Part of the list above in order of formula weight, low to high:
CCN(CC)CC#CCOC(=O)C(O)(c1ccccc1)C1CCCCC1 (stereo not given)
- STK33 inh: 0.3

Cc1cnc(C(=O)NCCc2ccc(S(=O)(=O)NC(=O)NC3CCCCC3)cc2)cn1
- STK33 inh: 1.3

C[C@@H]1CCCCO[C@H](CN(C)S(=O)(=O)c2ccc(F)cc2)[C@@H](C)CN([C@H](C)CO)C(=O)c2cc(NC(=O)Nc3ccccc3)ccc2O1
- STK33 inh: 7.0

# The list is partial; most or all hits stand in other tables.
